Source: PubChem (Broad Institute)
Vaccinia inh = blocks a specific stage of Vaccinia orthopoxvirus infection. activity change (mCherry), % (concentration not given with the values). AID 1053133. Vaccinia-infected cells, mCherry/Venus stage reporter fluorescence; hits give low values; some inactives read as strong as hits. actives 0.01% (n = 89,000);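 active means mCherry past -33% and 40 or more points under the early reporter, replicates agreeing; inconclusive means past -33% without that gap or agreement; tested in A549 cells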;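 further: scaled between vehicle wells and reference inhibitor wells; 23 nL library stock went into each well; one replicate is shown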
Vaccinia inh Venus = further read-out of Vaccinia inh, marked with its call; activity change (Venus), %; measured here: Venus reporter, other viral stage;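 negative = less Venus signal; first of two replicates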
* = called active by the depositor; ? = inconclusive; / = not tested or not shown. A portion of the library; the hit share may differ from the screen's.

SMILES	Vaccinia inh	Vaccinia inh Venus
C[C@@H]1CN([C@H](C)CO)C(=O)Cc2cc(NC(=O)CCN3CCOCC3)ccc2O[C@@H]1CN(C)Cc1ccc(Cl)c(Cl)c1	-26.8	-27.7
N#C[C@@H]1N[C@H](CO)[C@@H]1c1ccc(-c2cccc(F)c2)cc1	-19.0	-11.4
O=C(Nc1ccccc1F)N[C@@H]1CC[C@@H](CCNS(=O)(=O)c2ccc(Cl)cc2)O[C@H]1CO	-10.1	-5.0
C[C@@H]1CN([C@H](C)CO)C(=O)c2cc(NC(=O)Cc3ccccc3)ccc2O[C@H]1CN(C)S(=O)(=O)c1cccs1	-8.4	-1.2
COCC(=O)N1CC(=O)N2[C@H](C1)[C@H](c1ccc(C#CC3CCCCC3)cc1)[C@@H]2CO	-13.8	-15.9
COc1cccc(-c2cnc3c(c2)C(=O)N([C@H](C)CO)C[C@H](C)[C@H](CN(C)CC2CCCC2)O3)c1	4.6	8.8
C[C@H](CO)N1C[C@H](C)[C@@H](CN(C)C(=O)C2CCOCC2)Oc2ncc(-c3cccc(F)c3)cc2C1=O	3.8	6.6
C[C@@H]1CCCCO[C@@H](CN(C)C(=O)c2ccccc2)[C@H](C)CN([C@H](C)CO)C(=O)c2cc(NC(=O)c3ccncc3)ccc2O1	1.4	2.2
Cc1noc(C)c1NC(=O)Nc1ccc2c(c1)C(=O)N([C@H](C)CO)C[C@@H](C)[C@H](CN(C)C(=O)Nc1cccc3ccccc13)O2	10.6	5.5
C[C@H]1CN([C@@H](C)CO)C(=O)Cc2cc(NC(=O)Cn3cnnn3)ccc2O[C@@H]1CN(C)C(=O)Nc1ccc(C(F)(F)F)cc1	7.7	2.5
O=C(N[C@H]1CC[C@@H](CCNS(=O)(=O)c2ccc(F)cc2)O[C@H]1CO)C1CC1	-1.9	1.9
COc1ccc(NC(=O)N(C)C[C@@H]2OCc3cnnn3CCCC(=O)N([C@H](C)CO)C[C@H]2C)cc1	6.8	8.8
CS(=O)(=O)N1CC(=O)N2[C@H](CO)[C@@H](c3ccc(C#Cc4cccc(F)c4)cc3)[C@H]2C1	-9.6	-9.5
CN(C)C(=O)[C@@H]1[C@@H](CO)[C@@H]2Cn3c(ccc(C4=CCCCC4)c3=O)[C@H]1N2Cc1ccncc1	12.7	6.7
CCC(=O)N1[C@@H]2c3cccc(=O)n3C[C@@H]2[C@@H](CO)[C@@H]1C(=O)N[C@H](C)c1ccccc1	9.2	11.5

Among those listed so far, two contain an aryl methoxy group:
SMILES	Vaccinia inh	Vaccinia inh Venus
COc1cccc(-c2cnc3c(c2)C(=O)N([C@H](C)CO)C[C@H](C)[C@H](CN(C)CC2CCCC2)O3)c1	4.6	8.8
COc1ccc(NC(=O)N(C)C[C@@H]2OCc3cnnn3CCCC(=O)N([C@H](C)CO)C[C@H]2C)cc1	6.8	8.8

(further entries)
SMILES	Vaccinia inh	Vaccinia inh Venus
N#C[C@@H]1[C@@H](c2ccccc2-c2ccc(F)cc2)[C@H](CO)N1C(=O)Cc1cccnc1	6.0	-1.4
CC=Cc1ccc2n(c1=O)C[C@H]1[C@H](CO)[C@@H](C(=O)N3CCN(C)CC3)N(Cc3ccccc3F)[C@@H]21 (mixture of isomers)	4.2	-2.4
CNC[C@H]1Oc2ccc(NS(=O)(=O)c3ccc(OC)cc3)cc2C(=O)N([C@H](C)CO)C[C@@H]1C	2.3	1.3
CO[C@@H]1CN(C)C(=O)c2ccc(NC(=O)c3ccccc3F)cc2OC[C@@H](C)N(C(C)=O)C[C@H]1C	12.0	9.7
COc1ccc(S(=O)(=O)Nc2ccc3c(c2)C(=O)N([C@H](C)CO)C[C@@H](C)[C@@H](CN(C)C(=O)Nc2ccccc2)O3)cc1	12.2	8.6
O=C(N[C@@H]1CC[C@H](CCNS(=O)(=O)c2ccc(F)cc2)O[C@@H]1CO)C1CCCC1	-1.7	2.4
CC(C)(C)S(=O)N1Cc2cc(C(=O)NCc3ccc(Oc4ccccc4)cc3)nc(-c3cccc(C#CCC4CCCC4)c3)c2[C@@H]1CCO (stereo not given in full)	18.0	28.8
C[C@@H]1CN([C@H](C)CO)C(=O)Cc2cc(NC(=O)Nc3ccc(F)cc3)ccc2O[C@@H]1CN(C)Cc1ccc(C(=O)Nc2ccccc2N)cc1	-5.9	-9.3
COc1ccc(S(=O)(=O)N(C)C[C@@H]2OCCCC[C@H](C)Oc3ccc(NC(=O)NC4CCCCC4)cc3C(=O)N([C@@H](C)CO)C[C@@H]2C)cc1	-33.3	-20.1
CCCc1cn(CC[C@@H]2CC[C@H](NS(=O)(=O)c3ccc(-c4ccccc4)cc3)[C@H](CO)O2)nn1	?	/
O=C(c1cccnc1)N1CC[C@@H]2[C@@H](CO)Nc3ccc(-c4ccc(F)cc4)cc3[C@@H]21	-7.8	-3.6
C[C@@H]1CN([C@@H](C)CO)C(=O)c2cc(NC(=O)Cc3ccccc3)ccc2O[C@@H](C)CCCCO[C@H]1CN(C)S(=O)(=O)c1ccccc1	-8.5	-9.6
C[C@H](CO)N1C[C@H](C)[C@@H](CN(C)C(=O)Nc2ccc(F)cc2)OCCCC[C@H](C)Oc2ccc(NC(=O)c3ccncc3)cc2C1=O	5.3	-2.1
Cc1ccc(S(=O)(=O)N(C)C[C@@H]2Oc3ccc(NS(C)(=O)=O)cc3CC(=O)N([C@@H](C)CO)C[C@H]2C)cc1	3.4	5.5
CCCC#Cc1ccc2c(c1)O[C@H](CN(C)C(=O)c1cccnc1)[C@H](C)CN([C@H](C)CO)S2(=O)=O	5.4	-5.0

Two entries picked at random from those above, as already listed:
SMILES	Vaccinia inh	Vaccinia inh Venus
O=C(N[C@@H]1CC[C@H](CCNS(=O)(=O)c2ccc(F)cc2)O[C@@H]1CO)C1CCCC1	-1.7	2.4
CC=Cc1ccc2n(c1=O)C[C@H]1[C@H](CO)[C@@H](C(=O)N3CCN(C)CC3)N(Cc3ccccc3F)[C@@H]21 (mixture of isomers)	4.2	-2.4

(continued)
SMILES	Vaccinia inh	Vaccinia inh Venus
Cc1ccc(S(=O)(=O)Nc2ccc3c(c2)C(=O)N([C@@H](C)CO)C[C@H](C)[C@H](CN(C)C(=O)NC2CCCCC2)OCCCC[C@H](C)O3)cc1	?	/
O=C(NC1CCCCC1)N1CC(=O)N2[C@@H](CO)[C@H](c3ccc(-c4ccccc4)cc3)[C@@H]2C1	-11.8	-8.3
O=C(Nc1ccccc1Cl)N1C[C@@H]2[C@H](c3ccccc31)[C@@H](CO)N2C(=O)c1cccnc1	15.5	10.9
O=C(Nc1cccc(Cl)c1)N1C[C@@H]2[C@H](c3ccccc31)[C@@H](CO)N2C(=O)c1ccncc1	4.1	3.0
C[C@H]1CN([C@@H](C)CO)C(=O)c2cc(-c3ccccc3F)cnc2O[C@H]1CN(C)Cc1ccccc1	-1.9	-7.7
C[C@@H]1CN([C@@H](C)CO)C(=O)c2cccc(NC(=O)c3cnccn3)c2O[C@H]1CN(C)Cc1ccccc1	-12.0	-11.0
C[C@H]1CN([C@@H](C)CO)C(=O)c2cc(-c3ccc(C#N)cc3)cnc2O[C@H]1CN(C)C(=O)Nc1ccc(F)cc1	5.2	-0.3
C/C=C/c1ccc([C@H]2[C@@H](CO)N(C(=O)Cc3cccnc3)[C@H]2CNC(C)=O)cc1	4.2	-1.2
C[C@@H]1CN([C@@H](C)CO)C(=O)c2cc(NS(=O)(=O)c3ccc(Cl)cc3)ccc2O[C@@H]1CN(C)Cc1ccc(Cl)c(Cl)c1	-23.3	-15.6
O=C(C[C@H]1C=C[C@@H](NC(=O)Nc2cc(F)ccc2F)[C@H](CO)O1)NCc1ccncn1	3.2	-1.6
C/C=C/c1ccc2c(c1)O[C@H](CN(C)Cc1ccc(C(=O)O)cc1)[C@@H](C)CN([C@H](C)CO)S2(=O)=O	-1.9	1.7
COc1ccc2c3c([nH]c2c1)[C@@H](CO)N(C(=O)c1cccc(F)c1)CC31CCN(C(=O)CC2CC2)CC1	2.1	-13.3
O=C(Nc1cccc(F)c1)N1CC(=O)N2[C@@H](CO)[C@@H](c3ccc(C#CCC4CCCC4)cc3)[C@@H]2C1	?	/
C[C@H](CO)N1C[C@H](C)[C@@H](CN(C)Cc2cccnc2)Oc2ncc(C#Cc3cccnc3)cc2C1=O	20.1	14.1
COc1cc(CN2CC3(CCN(S(=O)(=O)c4cccc(F)c4)CC3)c3c([nH]c4cc(OC)ccc34)[C@H]2CO)cc(OC)c1	12.4	12.6
O=S(=O)(N[C@@H]1CCCN(Cc2ccc(OCCO)cc2)C1)c1cc(C(F)(F)F)ccc1Cl	-11.8	-6.1
C[C@H]1CN([C@@H](C)CO)C(=O)CCCn2cc(nn2)CO[C@H]1CN(C)Cc1cccc(C(F)(F)F)c1	-4.8	0.1
C[C@@H]1CN([C@H](C)CO)C(=O)Cc2cc(NC(=O)c3ccncc3)ccc2O[C@H]1CN(C)S(=O)(=O)c1cn(C)cn1	6.3	2.8
O=C(C[C@@H]1C=C[C@H](NC(=O)Nc2cc(F)ccc2F)[C@H](CO)O1)Nc1ccc(-c2ccccc2)cc1	?	/
CCCC(=O)Nc1ccc2c(c1)C(=O)N(C)C[C@H](OC)[C@H](C)CN(Cc1ccccn1)[C@H](C)CO2	2.0	0.0
C[C@@H]1CN([C@H](C)CO)C(=O)Cc2cc(NC(=O)c3ccncc3)ccc2O[C@@H]1CN(C)S(=O)(=O)c1ccc(F)cc1	8.9	10.9
C[C@@H]1CN([C@H](C)CO)C(=O)c2cc(NC(=O)CCC(F)(F)F)ccc2O[C@@H](C)CCCCO[C@@H]1CN(C)S(=O)(=O)c1ccccc1	22.1	9.9
CC(C)NC(=O)N(C)C[C@@H]1Oc2c(NC(=O)Nc3cccc4ccccc34)cccc2C(=O)N([C@H](C)CO)C[C@@H]1C	-22.1	-20.2
COc1ccccc1S(=O)(=O)Nc1ccc2c(c1)OC[C@@H](C)NC[C@@H](C)[C@@H](OC)CN(C)C2=O	6.9	15.1
Cn1cnc(S(=O)(=O)N2C[C@@H](O)COC[C@@H]3O[C@H](CC(=O)N4CCN(c5ccccc5)CC4)CC[C@H]32)c1	19.6	10.7
C[C@H]1CN([C@@H](C)CO)S(=O)(=O)c2ccc(C#Cc3ccccc3)cc2O[C@H]1CN(C)S(C)(=O)=O	?	/
COc1ccc(S(=O)(=O)Nc2cccc3c2O[C@H](CN(C)C(=O)Nc2ccccc2)[C@@H](C)CN([C@@H](C)CO)C3=O)cc1	13.2	13.8
O=C(C[C@H]1C[C@@H]2c3cc(NC(=O)CC4CC4)ccc3O[C@@H]2[C@@H](CO)O1)NCc1ccncc1	9.1	6.3
CO[C@H](CN(C)C(=O)Nc1ccc(F)cc1)[C@@H](C)CN(Cc1ccccc1Cl)[C@@H](C)CO	-17.0	-5.7
COc1ccccc1-c1cnc2c(c1)C(=O)N([C@@H](C)CO)C[C@H](C)[C@@H](CN(C)Cc1ccc(C(=O)O)cc1)O2	7.4	7.2
C[C@H]1CN([C@@H](C)CO)C(=O)Cc2cc(NC(=O)CCC(F)(F)F)ccc2O[C@@H]1CN(C)S(C)(=O)=O	21.5	4.3
O=C(C[C@H]1C[C@H]2c3cc(NS(=O)(=O)c4ccc(F)cc4)ccc3O[C@H]2[C@H](CO)O1)N1CCCCC1	-6.4	-5.5
Cc1ccc(S(=O)(=O)Nc2cccc3c2O[C@@H](CN(C)S(=O)(=O)c2cn(C)cn2)[C@H](C)CN([C@H](C)CO)C3=O)cc1	3.7	-0.2
C[C@H](CO)N1C[C@H](C)[C@@H](CN(C)C(=O)C2CCC2)Oc2ncc(C#Cc3ccccc3F)cc2C1=O	-13.6	1.1
CCC(=O)N(C)C[C@H]1Oc2cc(-c3ccncc3)ccc2S(=O)(=O)N([C@H](C)CO)C[C@@H]1C	11.5	4.1
CCC(=O)N(C)C[C@H]1Oc2cc(C#CCN(C)C)ccc2S(=O)(=O)N([C@@H](C)CO)C[C@@H]1C	8.4	2.4
COc1ccc(CN(C)C[C@H]2OCCCC[C@@H](C)Oc3ccc(NS(=O)(=O)c4ccc(Cl)cc4)cc3C(=O)N([C@@H](C)CO)C[C@@H]2C)cc1	?	/
C[C@H]1CN([C@@H](C)CO)C(=O)c2cc(NC(=O)Nc3ccc(F)cc3)ccc2O[C@H]1CN(C)S(C)(=O)=O	8.4	0.5
C[C@H](CO)N1C[C@H](C)[C@H](CN(C)Cc2ccc(Oc3ccccc3)cc2)Oc2ccc(NS(C)(=O)=O)cc2C1=O	-23.5	-17.9
CCS(=O)(=O)Nc1ccc2c(c1)C(=O)N(C)C[C@@H](OC)[C@H](C)CN(C(=O)c1ccc3c(c1)OCO3)[C@H](C)CO2	4.4	8.0
CN(C)C(=O)c1ccc(-c2ccc([C@H]3[C@H](CO)N4CCCCN(C(=O)C5CCC5)C[C@@H]34)cc2)cc1	24.1	11.8
C[C@@H]1CN([C@H](C)CO)C(=O)c2cc(NS(=O)(=O)c3cn(C)cn3)ccc2O[C@H]1CN(C)C(=O)Nc1ccc(C(F)(F)F)cc1	13.3	5.5
C[C@@H]1CN([C@H](C)CO)C(=O)c2cc(C#CC3CC3)cnc2O[C@H]1CN(C)S(=O)(=O)c1cccc(F)c1	-2.8	-9.1
Cc1ccc(S(=O)(=O)N(C)C[C@H]2Oc3ccc(NC(=O)CCCN(C)C)cc3CC(=O)N([C@H](C)CO)C[C@H]2C)cc1	9.7	2.7
COc1ccc2c3c([nH]c2c1)[C@@H](CO)N(C(=O)C1CCCC1)CC31CCN(C)CC1	4.7	-1.6
